2A Renilla: FMDV 2A StopGo reporter, Renilla signal | HEK cells with a luciferase reporter of 2A StopGo recoding | Potency, µM (titrated, usually from 57.5 µM), for the others: top-dose signal change, negative = less light | 120,000 compounds, 0.32% hits | AID 1745857; active means well fitted falling curve with a large enough effect; inconclusive means small, poorly fitted or top-dose-only effect; inactive means no such curve, though single readings can be large or run the other way; further: nearly all actives have a fitted effect of over 55% in size; overnight with compound
StopGo FLuc: FMDV 2A StopGo reporter, firefly signal | HEK cells with a luciferase reporter of 2A StopGo recoding | Potency, µM (doses to about 57.5 µM), without a hit: top-dose signal change, negative = less light | 120,000 compounds, 0.23% hits | AID 1745856; active = well fitted falling curve with a large enough effect; inconclusive = small, poorly fitted or top-dose-only effect; inactive = no such curve, though single readings can be large or run the other way; further: nearly all actives have a fitted effect of over 60% in size; overnight with compound
Starred values were filed as active, the others as inactive; [ ] = remark or other dose. On the % scale 0 is the no-effect control and ±100 the full control effect; potency means the concentration at half of the fitted maximal effect. This is a random part of the collection, and some 0.55% of all compounds hit somewhere here.

COc1ccccc1-n1c(=O)n(C)c2c(C(N)=O)nc(-c3cc(OC)c(OC)c(OC)c3)nc21 was read as 2A Renilla -10.4% and StopGo FLuc -0.6%.
Screening COc1ccc(CN(C)c2ccc(-c3nc(-c4ccc(OC)c(OC)c4)no3)cc2[N+](=O)[O-])cc1 returned 2A Renilla -13.7% and StopGo FLuc -9.9%.
Cc1ccccc1CNC(=O)C1=Cc2ccccc2OC1 was read as 2A Renilla 158.4%[activator] and StopGo FLuc 49.4%[activator].
CCCOc1ccc(-c2nc3ccc4ccccc4c3c3c2CCC3)cc1 was read as 2A Renilla -4.0% and StopGo FLuc -9.8%.
Screening COc1ccc(N2CCN(C(=O)c3ccc4c(c3)N(Cc3cc(C)ccc3C)C(=O)c3ccccc3S4=O)CC2)cc1 (stereo not drawn) returned 2A Renilla -6.4% and StopGo FLuc -11.9%.
`COC(=O)c1ccc(/C=C/C(=O)C23CC4CC(CC(C4)C2)C3)cc1` gave 2A Renilla 8.9% and StopGo FLuc 0.0%.
CCCCCCn1c(SCCCCC)nc2c1c(=O)[nH]c(=O)n2C was read as 2A Renilla -1.4% and StopGo FLuc 4.0%.
Screening COc1cccc(NC(=O)CCc2c(C)nc3ncnn3c2C)c1 returned 2A Renilla -10.0% and StopGo FLuc -4.6%.
For O=C(COc1ccc(Cl)cc1)Nc1ccc2nc(SCC(=O)N3CCOCC3)sc2c1 the results were 2A Renilla 4.7% and StopGo FLuc 8.2%.
N#Cc1cc2c(nc1SCC(=O)Nc1cccc(C(F)(F)F)c1)C1CCN2CC1 was read as 2A Renilla inconclusive and StopGo FLuc 0.0%.
`CCOc1ccccc1-c1nn2c(CN3CCCCC3)nnc2s1` gave 2A Renilla 0.2% and StopGo FLuc -3.8%.
COc1ccc(CNC(=O)[C@H](C)NC(=O)c2cc3c(OC)ccc(OC)c3[nH]2)cc1 was read as 2A Renilla -4.7% and StopGo FLuc -3.9%.
Screening COc1ccc(Nc2nn3c(=O)c4cc5c(cc4nc3s2)OCO5)c(OC)c1 returned 2A Renilla 8.7% and StopGo FLuc 8.1%.
Screening CCCCCCCCS(=O)(=O)CCCO returned 2A Renilla -1.5% and StopGo FLuc 0.0%.
`c1ccc(C(Sc2cccc3cccnc23)c2ccccc2)cc1` gave 2A Renilla -0.7% and StopGo FLuc 2.9%.
For CCc1cc(=O)n(CC(=O)Nc2ccc3c(c2)OCCO3)c(-n2nc(C)cc2C)n1 the results were 2A Renilla -1.0% and StopGo FLuc 5.1%.
CC(C)C(=O)N1N=C(c2cccs2)CC1c1ccc2nccnc2c1 (stereo not drawn) was read as 2A Renilla -7.4% and StopGo FLuc 18.2%.
`Cc1ccccc1Cn1cccc(C(=O)Nc2nc3ccccc3s2)c1=O` gave 2A Renilla 4.1% and StopGo FLuc inconclusive.
Screening Cc1ccc2sc(N(Cc3cccnc3)C(=O)C3=COCCO3)nc2c1C returned 2A Renilla 9.3% and StopGo FLuc 53.1%.
For COc1ccc(-c2noc(CNC(=O)c3ccc(OC)cc3OC)n2)cc1 the results were 2A Renilla -1.7% and StopGo FLuc -11.9%.
Screening Cc1ccc(NC(=O)c2ccc(CN3CC(=O)N4CCCCC4C3=O)cc2)c(C)c1 (stereo not drawn) returned 2A Renilla -6.7% and StopGo FLuc -9.2%.
For CCCn1nc(C(=O)N2CCCC2c2cccs2)c2ccccc2c1=O (stereo not drawn) the results were 2A Renilla 8.6% and StopGo FLuc 0.3%.
`COc1cc(-c2nc3ccc(C)cn3c2Nc2ccc(Cl)cc2)ccc1O` gave 2A Renilla 82.9%[activator] and StopGo FLuc 48.1%[activator].
`CCOc1cccc2sc(N3CCN(C(=O)c4ccc5c(c4)CCCC5)CC3)nc12` gave 2A Renilla -9.3% and StopGo FLuc -18.9%.
Screening OCCCc1nc2ccc(Br)cc2[nH]1 returned 2A Renilla -0.4% and StopGo FLuc 33.6%[activator].
Screening C[C@H]1COc2cc(Br)ccc2S(=O)(=O)N1Cc1cn(CCC2OCCO2)nn1 returned 2A Renilla 5.2% and StopGo FLuc 6.7%.
Screening O=C(NC1=NC2(C=C3CCCCC3n3c(=O)n(-c4ccccc4)c(=O)n32)CN1CC1CC1)c1ccccc1 (stereo not drawn) returned 2A Renilla 69.4%[activator] and StopGo FLuc 22.2%.
`C[C@@H]1O[C@@H](O[C@@H]2C=C3CC[C@@H]4[C@H](CC[C@]5(C)[C@@H](c6ccc(=O)oc6)CC[C@]45O)[C@@]3(C)CC2)[C@H](O)[C@H](O)[C@H]1O` gave 2A Renilla -79.1% and StopGo FLuc -84.9%.
O=C1[C@H]2CCCC[C@H]2C(=O)N1CCCCN1CCN(c2nsc3ccccc23)CC1 was read as 2A Renilla 6.9% and StopGo FLuc -12.9%[11.5 µM].
Screening Cc1ccc(Cl)cc1N1CCN(Cc2nc3c([nH]2)c(=O)n(C)c(=O)n3C)CC1 returned 2A Renilla 2.5% and StopGo FLuc 6.0%.
COc1cc(-n2c(=O)c3ccccc3n(Cc3cccc(Cl)c3)c2=O)cc(OC)c1OC was read as 2A Renilla -11.4% and StopGo FLuc -10.5%.
O=C(NCCCN1CCN(c2ccc(F)cc2)CC1)c1ccc2nc(Cc3ccccc3)oc2c1 was read as 2A Renilla inconclusive and StopGo FLuc inconclusive.
`Cc1ccc(S(=O)(=O)C(CNS(=O)(=O)c2ccc(Cl)cc2)c2cccnc2)cc1` (stereo not drawn) gave 2A Renilla 108.3%[activator] and StopGo FLuc 0.8%.
COc1cccc(CNC(=O)c2[nH]c3cc(C)ccc3c2Sc2ccccc2)c1 was read as 2A Renilla 15.6% and StopGo FLuc -2.6%.
Screening COc1cccc(NC(=O)c2nnn(Cc3nc(-c4ccc(OC)c(OC)c4)oc3C)c2N)c1 returned 2A Renilla 22.9% and StopGo FLuc 42.3%[activator].
COc1ccc(C(=O)Oc2ccc3c(=O)c(-c4ccccc4)c(C)oc3c2)cc1 was read as 2A Renilla -2.7% and StopGo FLuc 7.2%.
Screening CCOc1ccccc1N(CC(=O)N1CCN(C)CC1)S(=O)(=O)c1ccc(Cl)cc1 returned 2A Renilla 96.1%[activator] and StopGo FLuc -10.2%.
Cc1cc(C)cc(S(=O)(=O)Nc2cccc(-c3ccc(N4CCOCC4)nn3)c2)c1 was read as 2A Renilla -9.7% and StopGo FLuc 61.9%[activator].
For CCCCC(CC)C(=O)Nc1c(CC)cccc1CC (stereo not drawn) the results were 2A Renilla 3.2% and StopGo FLuc 0.0%.
Screening O=C(COC(=O)c1cc(=O)c2ccccc2o1)NCc1ccc(Cl)cc1 returned 2A Renilla 1.0% and StopGo FLuc -4.9%.
`CCNC(=O)CNC(=O)c1cc(Br)ccc1F` gave 2A Renilla 0.0% and StopGo FLuc 0.0%.
Cc1ccccc1CS(=O)CCC(=O)Nc1ccccc1 (stereo not drawn) was read as 2A Renilla 18.8% and StopGo FLuc 14.5%.
Screening COc1ccccc1N1CCN(C(=O)CN2C(=O)COc3ccc(S(=O)(=O)N4CCOCC4)cc32)CC1 returned 2A Renilla -7.4% and StopGo FLuc -1.5%.
`c1ccc(-c2nc(NCCN3CCOCC3)c3ccccc3n2)cc1` gave 2A Renilla 15.7% and StopGo FLuc 53.7%[activator].
For COc1ccc(CN2CCc3nc(Nc4ccccc4)ncc3C2)c(OC)c1OC the results were 2A Renilla 19.1% and StopGo FLuc 1.9%.
`Cc1cccn2c(=O)cc(COc3cccc(NC(=O)Nc4cccc(Cl)c4)c3)nc12` gave 2A Renilla -18.1% and StopGo FLuc -20.2%.
Screening COc1ccc(OCCCn2c(C3CC(=O)N(c4ccc(F)cc4)C3)nc3ccccc32)cc1 (stereo not drawn) returned 2A Renilla 27.3% and StopGo FLuc 39.8%[activator].
Cc1ccc(-c2csc(=Nc3ccc(F)cc3)n2Cc2ccc3c(c2)OCO3)cc1C was read as 2A Renilla 12.3% and StopGo FLuc 70.9%[activator].
CN(C)c1ccc(Nc2ncnc3sc4c(c23)CCCC4)cc1 was read as 2A Renilla inconclusive and StopGo FLuc -56.0%.
`COc1cc(OC)c(-n2nnc(-c3nc(-c4ccc(C)cc4)no3)c2C)cc1Cl` gave 2A Renilla 7.5% and StopGo FLuc 19.7%.
Screening Cc1sc2ncnc(OCC(=O)Nc3ccc(S(=O)(=O)N4CCCC4)cc3)c2c1C returned 2A Renilla -4.5% and StopGo FLuc 2.1%.
`C=CCC1=C(C)C(OC(=O)C2C(C=C(C)C)C2(C)C)CC1=O` (stereo not drawn) gave 2A Renilla 3.0%[114 µM] and StopGo FLuc -6.3%[22.9 µM].
Screening Cc1csc(CNC(=O)c2nccnc2N)n1 returned 2A Renilla -1.4% and StopGo FLuc 26.8%.
`O=C1CSc2ccc(C(=O)NOCc3ccccc3)cc2N1` gave 2A Renilla 13.8% and StopGo FLuc 153.9%[activator].
Screening COC(=O)c1sc2cccc(F)c2c1S(=O)(=O)NCc1ccc(F)cc1 returned 2A Renilla 124.6%[activator] and StopGo FLuc -18.3%.
Screening COc1ccc(NC(=O)Cn2cc(C(=O)c3ccc(C)c(C)c3)c(=O)c3cc(OC)ccc32)cc1 returned 2A Renilla -14.0% and StopGo FLuc -11.6%.
`CCNC(=O)CSc1nc(C)nc2sc3c(c12)CCC3` gave 2A Renilla -6.7% and StopGo FLuc 1.1%.
For CCn1c(SCCN2CCOCC2)nc2c1c(=O)n(C)c(=O)n2C the results were 2A Renilla 9.6% and StopGo FLuc 12.9%.
Screening COC(=O)c1nnn(CC(=O)Nc2ccc(C)cc2Cl)c1C(=O)OC returned 2A Renilla -6.9% and StopGo FLuc -5.4%.
For Cc1ccc(OCC(=O)NCc2ccc(-c3nc4ncccc4o3)cc2)cc1 the results were 2A Renilla -8.4% and StopGo FLuc 14.1%.
For COc1cc(C(=O)N/C(=C\c2cn(C)c3ccccc23)C(=O)N2CCOCC2)cc(OC)c1OC the results were 2A Renilla -17.9% and StopGo FLuc -13.9%.
`CC(COc1ccccc1C#N)CN1CCC(C(O)(c2ccccc2)c2ccccc2)CC1` (stereo not drawn) gave 2A Renilla -10.8% and StopGo FLuc -11.9%.
`Cc1c(C(=O)Nc2cccc(F)c2)sc2nc(-c3cc4ccccc4oc3=O)[nH]c(=O)c12` gave 2A Renilla -12.0% and StopGo FLuc -6.9%.
CC(NC(=O)CCc1ncc(-c2c(F)cccc2F)o1)c1ccco1 (stereo not drawn) was read as 2A Renilla 14.9% and StopGo FLuc 20.0%.
For Cc1ccc(C)c(NC(=S)NNC=O)c1 the results were 2A Renilla 5.3% and StopGo FLuc 14.0%.
`CCOc1ccc(N(C)S(=O)(=O)c2ccc3c(c2)CCCN3C(C)=O)cc1` gave 2A Renilla 6.1% and StopGo FLuc -12.7%.
For CC(C)CCn1c(=O)c2sccc2n2c(CCCC(=O)Nc3ccc(F)c(Cl)c3)nnc12 the results were 2A Renilla -11.0% and StopGo FLuc -10.4%.
Screening CN(C)C(=O)/C=C/c1csc(-c2ccc(F)cc2)n1 returned 2A Renilla 22.8% and StopGo FLuc 4.8%.
For COc1ccc(/C=C/c2nc(C#N)c(NCCN3CCOCC3)o2)cc1OC the results were 2A Renilla -4.6% and StopGo FLuc -7.2%.
O=C(CSc1nc(Nc2ccc(F)cc2)c2ccccc2n1)c1ccc(F)cc1 was read as 2A Renilla 6.0% and StopGo FLuc -13.3%.
`Cc1noc(CSc2nc(C3CC3)nc3ccccc23)n1` gave 2A Renilla -37.2% and StopGo FLuc -28.2%.
`Cc1cc2c(n1-c1ccc(C(=O)NCc3ccc(OC(C)C)cc3)cc1)CCCC2` gave 2A Renilla inconclusive and StopGo FLuc 0.0%.
For CC(C)c1nc(C#N)c(NCC(c2cccs2)N2CCOCC2)o1 (stereo not drawn) the results were 2A Renilla 12.3% and StopGo FLuc 2.6%.
O=C(Cn1c(=O)oc2ccccc21)NCc1ccc(Cl)cc1 was read as 2A Renilla 12.6% and StopGo FLuc -2.3%.
For Cc1cn2c(=O)cc(COC(=O)c3ccc(NC(=O)COc4ccc(C)c(C)c4)cc3)nc2s1 the results were 2A Renilla -7.4% and StopGo FLuc -16.0%.
For Cc1ccc(S(=O)(=O)N2CCN(CC(=O)NC(C)(C)C)CC2)cc1C the results were 2A Renilla 7.5% and StopGo FLuc -3.7%.
`CCOC(=O)c1c(NC(=O)CCCOc2ccc(C(C)(C)C)cc2)sc2c1CCC2` gave 2A Renilla -5.8% and StopGo FLuc 13.3%.
`CNC(=O)CN1C(=O)c2cccnc2Sc2ccccc21` gave 2A Renilla -20.6% and StopGo FLuc -13.7%.
CCCCc1c(C)[nH]c2c(C)cccc2c1=S was read as 2A Renilla -1.7% and StopGo FLuc 0.7%.
Screening N#Cc1cccc(OCc2ccc(C#N)cc2F)c1 returned 2A Renilla 10.6% and StopGo FLuc 0.0%.

Screening data (PubChem BioAssay)
